Compound activity as filed in PubChem BioAssay.
Vaccinia inh: blocks a specific stage of Vaccinia orthopoxvirus infection; Vaccinia-infected cells, mCherry/Venus stage reporter fluorescence; stronger effect = lower value; some inactives read as strong as hits; activity change (mCherry), % (no concentration beside the values); 0.01% of 89,000 active; AID 1053133;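 active = mCherry past -33% and 40 or more points under the early reporter, replicates agreeing; inconclusive = past -33% without that gap or agreement; tested in A549 cells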;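 note: scaled between vehicle wells and reference inhibitor wells; 23 nL library stock went into each well; one replicate is shown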
Vaccinia inh Venus: recorded beside Vaccinia inh, whose call it bears; activity change (Venus), %; measured here: Venus reporter, other viral stage;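 negative = less Venus signal; first of two replicates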
* = called active by the depositor; ? = inconclusive; · = no result given. Some of the compounds tested; count on the stated rates, not on these rows.

Under each structure: Vaccinia inh Venus, Vaccinia inh
- Cc1noc(C)c1S(=O)(=O)Nc1ccc2c(c1)C(=O)N([C@@H](C)CO)C[C@H](C)[C@@H](CN(C)C(=O)Nc1ccc3c(c1)OCO3)OCCCC[C@H](C)O2
→ -1, -5
- COCC(=O)N(C)C[C@@H]1Oc2cc(C#CCC3CCCC3)ccc2S(=O)(=O)N([C@@H](C)CO)C[C@H]1C
→ ·, ?
- C[C@H](CO)N1C[C@H](C)[C@@H](CN(C)C(=O)Nc2ccccc2)Oc2c(NC(=O)c3cnccn3)cccc2C1=O
→ 4, 4
- O=C(Nc1ccccc1F)N1C[C@@H]2[C@H](c3ccccc31)[C@@H](CO)N2C(=O)C1CCCC1
→ 20, 3
- COCC#Cc1ccc2c(c1)O[C@H](CN(C)Cc1cccnc1)[C@@H](C)CN([C@@H](C)CO)S2(=O)=O
→ -4, 2
- C[C@@H]1CCCCO[C@H](CN(C)S(=O)(=O)c2cn(C)cn2)[C@@H](C)CN([C@H](C)CO)C(=O)c2cc(NC(=O)Nc3ccccc3)ccc2O1
→ 20, 26
- CCCNC(=O)N1CC2(CN(Cc3nccs3)C2)c2c([nH]c3cc(OC)ccc23)[C@H]1CO
→ 3, 22
- CC(C)C#Cc1cnc2c(c1)C(=O)N([C@H](C)CO)C[C@@H](C)[C@H](CN(C)Cc1ccc3c(c1)OCO3)O2
→ -13, -15
- CC(C)C#Cc1ccc([C@@H]2[C@@H](C#N)N(C(=O)C3CC3)[C@H]2CO)cc1
→ 2, 2
- CC(C)NC(=O)N(C)C[C@@H]1Oc2ccc(NS(=O)(=O)c3ccccc3)cc2CC(=O)N([C@H](C)CO)C[C@H]1C
→ 4, 5
- C[C@@H]1CCCCO[C@H](CN(C)C(=O)Nc2ccc(C(F)(F)F)cc2)[C@H](C)CN([C@H](C)CO)C(=O)c2cc(NS(=O)(=O)c3ccc(Cl)cc3)ccc2O1
→ -1, -15
- C[C@H](O)C#Cc1cnc2c(c1)C(=O)N([C@@H](C)CO)C[C@H](C)[C@H](CN(C)Cc1cccc(F)c1)O2
→ 3, 3
- O=C(C1CCC1)N1CCCCN2[C@H](CO)[C@@H](c3ccc(-c4cccc(F)c4)cc3)[C@H]2C1
→ ·, ?
- CO[C@H]1CN(C)C(=O)c2cc(NC(=O)NC(C)C)ccc2OC[C@H](C)N(Cc2ccccn2)C[C@H]1C
→ 3, 2
- Cc1noc(C)c1NC(=O)N(C)C[C@H]1Oc2ncc(C#CC(C)C)cc2C(=O)N([C@H](C)CO)C[C@@H]1C
→ -8, 2
- O=C(NC1CCCCC1)N[C@@H]1CC[C@H](CC(=O)N2CCOCC2)O[C@H]1CO
→ 2, 6
- C[C@H](CO)N1C[C@H](C)[C@H](CN(C)C(=O)Cc2ccncc2)Oc2ncc(C#CC3(O)CCCC3)cc2C1=O
→ 7, 11
- O=C(N[C@H]1C=C[C@H](CC(=O)N2CCOCC2)O[C@H]1CO)c1ccccn1
→ -2, 1
- C[C@@H]1CN([C@H](C)CO)C(=O)c2cc(NC(=O)Nc3ccccc3)ccc2O[C@@H]1CN(C)Cc1ccc(C(=O)O)cc1
→ 12, 28
- O=C(N[C@@H]1C=C[C@@H](CC(=O)N2CCN(c3ccccc3)CC2)O[C@@H]1CO)c1ccncc1
→ -11, -11
- CCC(=O)N1[C@@H](CO)[C@@H](c2ccccc2)[C@@H]1CNC(=O)CN1CCOCC1
→ 12, 15
- C[C@H]1CN([C@@H](C)CO)C(=O)CCCn2nncc2CO[C@@H]1CN(C)C(=O)Nc1cccc(C(F)(F)F)c1
→ 0, 6
- O=C(C[C@@H]1CC[C@H]2[C@@H](COC[C@@H](O)CN2C(=O)Nc2ccc(Cl)cc2)O1)NCC1CC1
→ 5, 0
- CO[C@H]1CN(C)C(=O)c2ccc(NC(=O)Nc3cc(F)ccc3F)cc2OC[C@@H](C)N(C(=O)c2ccccn2)C[C@H]1C
→ 16, 16
- O=C(Nc1ccc2c(c1)OCO2)N[C@H]1CC[C@H](CCNC(=O)C2CCCCC2)O[C@@H]1CO
→ 16, 21
- COc1cccc(-c2ccc3c(c2)[C@@H]2[C@@H](CCN2C(=O)NC2CCCC2)[C@H](CO)N3C)c1
→ ·, ?
- COc1ccc(S(=O)(=O)N[C@H]2CC[C@H](CC(=O)N3CCC(Cc4ccccc4)CC3)O[C@H]2CO)cc1
→ -11, -22
- COc1ccc2c3c([nH]c2c1)[C@H](CO)N(C(=O)c1cccnc1)CC31CCN(Cc2ccccc2)CC1
→ ·, ?
- C/C=C/c1ccc([C@@H]2[C@@H](CO)N3CCCCN(S(=O)(=O)c4ccc(OC)cc4)C[C@@H]23)cc1
→ 4, 9
- Cc1ccc(S(=O)(=O)Nc2ccc3c(c2)C(=O)N([C@@H](C)CO)C[C@@H](C)[C@H](CN(C)S(=O)(=O)c2ccc(Cl)cc2)O3)cc1
→ 1, 0

Four of the compounds above, field by field:
molecule: COCC#Cc1ccc2c(c1)O[C@H](CN(C)Cc1cccnc1)[C@@H](C)CN([C@@H](C)CO)S2(=O)=O
- Vaccinia inh Venus: -4
- Vaccinia inh: 2
molecule: C[C@@H]1CCCCO[C@H](CN(C)S(=O)(=O)c2cn(C)cn2)[C@@H](C)CN([C@H](C)CO)C(=O)c2cc(NC(=O)Nc3ccccc3)ccc2O1
- Vaccinia inh Venus: 20
- Vaccinia inh: 26
molecule: CCCNC(=O)N1CC2(CN(Cc3nccs3)C2)c2c([nH]c3cc(OC)ccc23)[C@H]1CO
- Vaccinia inh Venus: 3
- Vaccinia inh: 22
molecule: CC(C)C#Cc1cnc2c(c1)C(=O)N([C@H](C)CO)C[C@@H](C)[C@H](CN(C)Cc1ccc3c(c1)OCO3)O2
- Vaccinia inh Venus: -13
- Vaccinia inh: -15

(continued)
Under each structure: Vaccinia inh Venus, Vaccinia inh
- Cc1ccc(S(=O)(=O)N[C@H]2CC[C@H](CC(=O)O)O[C@H]2CO)cc1
→ 2, 5
- COc1ccccc1S(=O)(=O)N[C@H]1CC[C@H](CC(=O)N2CCOCC2)O[C@@H]1CO
→ 2, 15
- O=C(C[C@@H]1C=C[C@@H](NC(=O)C2CCC2)[C@H](CO)O1)NC1CCC1
→ 5, 4
- COc1ccc(NC(=O)N2C[C@@H](O)COC[C@H]3O[C@H](CC(=O)NCc4ccccc4OC)CC[C@@H]32)cc1
→ 8, 17
- Cc1noc(C)c1NC(=O)N(C)C[C@H]1Oc2ccc(NC(=O)Cc3cn(C)c4ccccc34)cc2CC(=O)N([C@H](C)CO)C[C@@H]1C
→ 11, 31
- CO[C@@H]1CN(C)C(=O)c2ccc(NC(=O)C3CC3)cc2OC[C@@H](C)N(Cc2cc(F)ccc2F)C[C@H]1C
→ -12, -23
- CS(=O)(=O)N1CCCCN2[C@H](CO)[C@@H](c3ccc(-c4cccc(C#N)c4)cc3)[C@@H]2C1
→ 14, 18
- C[C@@H]1CN([C@H](C)CO)C(=O)CCCn2nncc2CO[C@H]1CN(C)Cc1ccc(Cl)c(Cl)c1
→ -28, -32
- N#C[C@H]1N[C@@H](CO)[C@@H]1c1ccc(-c2cccc(F)c2)cc1
→ -14, -15
- COCC(=O)Nc1ccc2c(c1)OC[C@@H](C)N(C(=O)c1cnccn1)C[C@@H](C)[C@@H](OC)CN(C)C2=O
→ 12, 10
- C[C@H](CO)N1C[C@H](C)[C@@H](CN(C)S(C)(=O)=O)OCCCC[C@H](C)Oc2ccc(NS(=O)(=O)c3ccc(Cl)cc3)cc2C1=O
→ 3, 3
- COc1cccc(NC(=O)N[C@@H]2C=C[C@@H](CC(=O)NCc3ccncn3)O[C@H]2CO)c1
→ 10, -2
- C[C@H]1CN([C@@H](C)CO)C(=O)c2cccc(NC(=O)c3cnccn3)c2O[C@H]1CN(C)C(=O)Nc1ccc(C(F)(F)F)cc1
→ 5, 2
- COc1ccc(NC(=O)N(C)C[C@@H]2Oc3ccc(NC(=O)C4CCCCC4)cc3CC(=O)N([C@H](C)CO)C[C@@H]2C)cc1
→ 3, -3
- C[C@H]1CN([C@@H](C)CO)C(=O)c2cccc(NC(=O)Nc3ccc(F)cc3)c2O[C@H]1CN(C)S(=O)(=O)c1ccccc1
→ -3, -17
- C[C@@H]1CCCCO[C@H](CN(C)C(=O)Nc2ccc(C(F)(F)F)cc2)[C@H](C)CN([C@@H](C)CO)C(=O)c2cc(NS(=O)(=O)c3ccc(Cl)cc3)ccc2O1
→ 4, -15
- Cc1ccc(S(=O)(=O)Nc2ccc3c(c2)C(=O)N(C)[C@@H]2CC[C@H](CC(=O)O)O[C@@H]2CO3)cc1
→ 10, 12
- O=S(=O)(c1ccc(F)cc1)N1CCCCN2[C@H](C1)[C@@H](c1ccc(-c3ccccc3)cc1)[C@@H]2CO
→ 8, 19
- CO[C@H]1CN(C)C(=O)c2ccc(NC(C)=O)cc2OC[C@H](C)N(Cc2ccccn2)C[C@H]1C
→ 18, 26
- COc1ccc2c3c(n(C)c2c1)[C@@H](CO)N(C(=O)CN1CCOCC1)CC31CN(C(C)=O)C1
→ 1, 12
- COCC#Cc1cnc2c(c1)C(=O)N([C@@H](C)CO)C[C@H](C)[C@@H](CN(C)Cc1ccccc1)O2
→ 7, 7
- CCCN1[C@H](C(=O)N(C)C)[C@@H](CO)[C@@H]2Cn3c(ccc(-c4ccccc4)c3=O)[C@@H]21
→ 5, 14
- CO[C@@H]1CN(C)C(=O)c2ccc(NC(=O)C3CC3)cc2OC[C@H](C)N(C(=O)Cc2ccccn2)C[C@H]1C
→ 1, 2
- COc1cccc(NC(=O)N2CC(=O)N3[C@@H](CO)[C@H](c4ccc(Br)cc4)[C@@H]3C2)c1
→ -10, -3
- C[C@@H]1CCCCO[C@H](CN(C)Cc2ccc(C(F)(F)F)cc2)[C@@H](C)CN([C@@H](C)CO)C(=O)c2cc(NS(=O)(=O)c3ccc(Cl)cc3)ccc2O1
→ ·, ?
- C[C@@H]1CCCCO[C@H](CN(C)C(=O)Nc2cccc3ccccc23)[C@H](C)CN([C@H](C)CO)C(=O)c2cc(NS(=O)(=O)c3cccs3)ccc2O1
→ 15, 8
- CO[C@H]1CC[C@H]2CCN(C)C(=O)C[C@@H](c3ccccc3)CN(C)C(=O)c3cccc(C#N)c3OC[C@@H]1O2
→ 37, 38
- COc1cccc(-c2ccc3n(c2=O)C[C@@H]2[C@@H](CO)[C@H](C(=O)NCC4CC4)N(C(=O)NC(C)C)[C@H]32)c1
→ 3, -7
- O=C(C[C@@H]1C[C@@H]2c3cc(NS(=O)(=O)c4ccc(F)cc4)ccc3O[C@@H]2[C@@H](CO)O1)NCCN1CCCCC1
→ 7, 10
- CO[C@@H]1CN(C)C(=O)c2ccc(NC(=O)NC(C)C)cc2OC[C@@H](C)N(Cc2ccccc2)C[C@H]1C
→ -5, -4

Looked up above:
`C[C@@H]1CN([C@H](C)CO)C(=O)CCCn2nncc2CO[C@H]1CN(C)Cc1ccc(Cl)c(Cl)c1` @ Vaccinia inh Venus = -28
`CO[C@@H]1CN(C)C(=O)c2ccc(NC(=O)NC(C)C)cc2OC[C@@H](C)N(Cc2ccccc2)C[C@H]1C` @ Vaccinia inh Venus = -5

Continuation:
Under each structure: Vaccinia inh Venus, Vaccinia inh
- C[C@@H]1CN([C@H](C)CO)C(=O)c2cccc(NC(=O)C3CCCCC3)c2O[C@@H]1CN(C)C(=O)Nc1ccc(F)cc1
→ -1, 2
- C[C@H]1CN([C@@H](C)CO)C(=O)c2cc(NC(=O)CCCN(C)C)ccc2O[C@@H]1CN(C)Cc1ccc(Oc2ccccc2)cc1
→ -6, -13
- O=C(C[C@H]1CC[C@@H]2[C@H](COC[C@H](O)CN2C(=O)c2ccncc2)O1)NC1CCC1
→ -3, -1
- C[C@H](CO)N1C[C@H](C)[C@H](CN(C)S(=O)(=O)c2cccs2)Oc2ncc(C#Cc3cccc(F)c3)cc2C1=O
→ ·, ?
- CN(C[C@@H]1[C@@H](c2ccccc2)[C@H](CO)N1C(=O)c1ccccc1)C(=O)C1CCC1
→ 11, 19
- C[C@H]1CN([C@@H](C)CO)C(=O)Cc2cc(NS(=O)(=O)c3cn(C)cn3)ccc2O[C@@H]1CN(C)C(=O)Nc1ccc(F)cc1
→ 5, 2
- C[C@@H]1CN([C@H](C)CO)C(=O)Cc2cc(NC(=O)CCN3CCOCC3)ccc2O[C@H]1CN(C)Cc1ccc(Oc2ccccc2)cc1
→ -11, -6
- CCO[C@@H]1OC(C(N)=O)=C[C@H](c2cn(C(C)=O)c3ccccc23)[C@H]1CCCO
→ 13, 22
- O=C(Nc1cccc(Cl)c1)N[C@H]1CC[C@H](CCNC(=O)C2CCCC2)O[C@H]1CO
→ 2, -9
- C[C@H](CO)N1C[C@H](C)[C@H](CN(C)S(C)(=O)=O)Oc2ccc(NC(=O)CCC(F)(F)F)cc2CC1=O
→ 3, 3
- C[C@@H]1CN([C@H](C)CO)C(=O)Cc2cc(NS(=O)(=O)c3ccccc3)ccc2O[C@@H]1CN(C)CC1CCCCC1
→ -3, -5
- COc1ccc(-c2cnc3c(c2)C(=O)N([C@@H](C)CO)C[C@@H](C)[C@@H](CN(C)S(C)(=O)=O)O3)cc1
→ 2, 14
- C[C@H](NC(=O)C[C@H]1CC[C@H](NC(=O)CN2CCOCC2)[C@H](CO)O1)c1ccccc1
→ 2, 2
- O=C(Nc1ccc(-c2ccccc2)cc1)[C@@H]1[C@@H](CO)[C@@H]2Cn3c(cccc3=O)[C@@H]2N1CC1CCCC1
→ ·, ?
